High-throughput results from PubChem BioAssay.
Lassa entry inh: inhibitors of Lassa virus binding or cell entry; Lassa virus pseudotype entry inhibition, cell reporter; control for the full effect not named in the record; Potency, µM (series often up to 37.9 µM), inactives show at the highest dose activity change, negative = inhibition, usual class: inhibitors; actives 1.2% (n = 300,000); AID 540256; active means well fitted inhibition curve with a large enough effect; inconclusive means small, poorly fitted or top-dose-only effect, or effect the other way; inactive means flat fitted curve, though single readings scatter; tested in HEK293 cells; also: % is scaled to controls: 0 for no effect and ±100 for the full control effect; nearly all actives have a fitted effect of over 50% in size; luciferase read-out
RE007 growth inh: less growth of the S. pombe RE007 Vpr strain | S. pombe RE007 Vpr strain, BacTiter-Glo ATP luminescence, 24 h; control for the full effect not named in the record | actives 0.21% (n = 360,000) | Potency, µM (highest dose often 92.2 µM), for the others: top-dose activity change, negative = less growth; active = well fitted falling curve with a large enough effect; inconclusive = small, poorly fitted or top-dose-only effect; inactive = no such curve, though single readings can be large or run the other way;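 also: % is scaled to controls: 0 for no effect and ±100 for the full control effect; nearly all actives have a fitted effect of over 50% in size; the assay follows cell death caused by Vpr and the record does not say whether a fall means rescue or toxicity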
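Fission yeast RE007 carrying one integrated HIV-1 vpr copy, seeded at OD 0.01 in PMG+AL medium with 23 nL pinned compound. Grown 24 h at 30 degrees; viability read by BacTiter-Glo luminescence after 5 min.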
NS1 function inh: blocks influenza NS1 protein function. S. cerevisiae slowed by influenza A NS1, growth recovery by OD600. Potency, µM (doses to about 46.1 µM), without a hit: top-dose activity, positive = more growth. actives 0.4% (n = 270,000). AID 2326; also: actives are rising curves; nearly all actives have a fitted effect of over 50% in size
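Compounds were scored for reversing the slow growth caused by influenza A NS1 in S. cerevisiae, measured by optical density at 600 nm. Assay medium contained 2% galactose at pH 6.0; NS1-free yeast of the same strain were the positive control.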
Cruzain Triton: blocks cruzain activity in presence of Triton detergent | Potency, µM, without a hit: max response, negative = inhibition, hits mostly inhibitors | purified cruzain, Z-FR-AMC fluorescence, 0.01% Triton | AID 1478 | actives 0.43% (n = 200,000) | P25779; active = well fitted curve in the direction sought with a large enough effect; inconclusive = small, poorly fitted or top-dose-only effect, or another doubt; inactive = no such curve, though single readings can be large; an effect the other way counts as inactive or inconclusive;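 also: plate controls were neutral wells for no effect and buffer without enzyme for full effect; nearly all actives have a fitted effect of over 40% in size; top concentration of the series not given in the record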
Target sequence (P25779 123-467 limits assumed): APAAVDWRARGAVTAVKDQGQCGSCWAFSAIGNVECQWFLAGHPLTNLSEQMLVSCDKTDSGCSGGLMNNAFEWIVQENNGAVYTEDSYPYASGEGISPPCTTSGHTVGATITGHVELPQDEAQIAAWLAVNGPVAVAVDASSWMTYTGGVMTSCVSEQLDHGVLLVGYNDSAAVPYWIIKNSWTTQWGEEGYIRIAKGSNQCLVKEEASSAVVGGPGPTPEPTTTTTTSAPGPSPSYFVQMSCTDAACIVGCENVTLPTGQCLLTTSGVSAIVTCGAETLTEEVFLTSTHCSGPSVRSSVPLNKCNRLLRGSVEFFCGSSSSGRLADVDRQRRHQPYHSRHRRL
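In this qHTS format, compounds are incubated with 1.5 nM cruzain for 15 min at room temperature before 2 uM Z-FR-AMC is added. Release of AMC is followed at 360/450 nm, and progress is taken as the 60 s fluorescence difference.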
MARV entry inh: blocks Marburg virus binding to or entry into cells | Marburg virus pseudotyped entry inhibition, cell reporter; control for the full effect not named in the record; about a third of the inactives were read at about 46 µM | Potency, µM (highest dose often 37.8 µM), without a hit: top-dose activity change, negative = inhibition, actives largely listed as inhibitors | actives 1.8% (n = 300,000) | AID 540276; active = well fitted inhibition curve with a large enough effect; inconclusive = small, poorly fitted or top-dose-only effect, or effect the other way; inactive = flat fitted curve, though single readings scatter; tested in HEK293 cells; about a fifth of its hits are not listed in these tables; also: % is scaled to controls: 0 for no effect and ±100 for the full control effect; luciferase read-out
Cruzain inh noDet: cruzain (T. cruzi) inhibition without detergent. P25779. purified cruzain, Z-FR-AMC fluorescence, no detergent. Potency, µM, without a hit: max response, negative = inhibition, most hits filed as inhibitors. actives 2.3% (n = 200,000). AID 1476; active = well fitted curve in the direction sought with a large enough effect; inconclusive = small, poorly fitted or top-dose-only effect, or another doubt; inactive = no such curve, though single readings can be large; an effect the other way counts as inactive or inconclusive;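 also: plate controls were enzyme without inhibitor for no effect and buffer without enzyme for full effect; nearly all actives have a fitted effect of over 40% in size; top concentration of the series not given in the record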
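Detergent-free condition (0.00005% Triton X-100) in acetate buffer pH 5.5 with DTT. 1.5 nM enzyme and compound were pre-mixed 15 min, then 2 uM Z-FR-AMC substrate added; reaction progress from fluorescence change between first and third reads (60 s).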
SARS PLP yeast: inhibitors of SARS-CoV papain-like protease in yeast. S. cerevisiae expressing SARS-CoV PLpro, growth rescue; control for the full effect not named in the record. Potency, µM (series often up to 32.9 µM), for inactives: top-dose activity, positive = growth rescue. actives 0.19% (n = 330,000); also: 0% is about no effect; nearly all actives have a fitted effect of over 55% in size; growth read by luminescence after 48 h
StopGo reporter: lowers the luciferase signal of an FMDV 2A StopGo reporter. actives 1.2% (n = 410,000). AID 1159524. human cells with a luciferase reporter of 2A StopGo recoding; control for the full effect not named in the record. Potency, µM (highest dose often 57.9 µM), for inactives: top-dose signal change, negative = less light; active = well fitted falling curve with a large enough effect; inconclusive = small, poorly fitted or top-dose-only effect; inactive = no such curve, though single readings can be large or run the other way; tested in HEK293T cells; also: % is scaled to controls: 0 for no effect and ±100 for the full control effect; nearly all actives have a fitted effect of over 45% in size; luciferase light after 4 h
An asterisk follows results filed as active; ? = inconclusive; . = no result given; [ ] = dose if it differs, or a comment. Unless noted, calls follow the shape of the dose curve; as a rule, active means well fitted rising curve with a large enough effect; inconclusive means small, poorly fitted or top-dose-only effect; inactive means no such curve, though single readings can be large or run the other way. Potency is read from the fitted curve at half-maximal effect.

Every second line gives: MARV entry inh | NS1 function inh | Cruzain inh noDet | StopGo reporter | Lassa entry inh | RE007 growth inh | Cruzain Triton | SARS PLP yeast
- COc1ccccc1CNC(=O)C(NC(=O)c1ccccc1)C(C)C (stereo unspecified)
    . | 3% | . | -2% | . | -7% | . | -1%
- CC1CCC2C(=O)N(c3ccc(Cc4ccncc4)cc3)C(=O)C2C1 (stereo unspecified)
    ? | 0% | . | ? | ? | -3% | . | 0%
- Cc1c(C(=O)OCC(=O)NCc2ccccc2)oc2ccccc12
    1% | . | . | 4% | -5% | 12% | . | -8%
- CC(C)C(c1nnnn1Cc1ccccc1)N1CCc2ccccc2C1 (stereo unspecified)
    23% | -44% | -4% | . | 15% | -10% | 1.2% | -9%
- Cc1cc(C(=O)NCc2ccc(F)cc2)c2ccccc2n1
    -5%[46.1 µM] | -9% | . | 8% | 14%[46.1 µM] | -2% | . | 2%
- COc1cccc(C(=O)CN(C(=O)c2ccc(Cl)c(Cl)c2)N2C(=O)c3ccccc3C2=O)c1
    -2% | 1% | ? | -13% | 5% | -4% | 4.0% | -7%
- COCCCNC(=S)N1CCC(NC(=O)Nc2ccc(C)cc2)CC1
    3%[46.1 µM] | 1% | . | -18% | -6% | -14% | . | -1%
- O=C(Cc1ccccc1)NCC(=O)N/N=C/c1ccc([N+](=O)[O-])s1
    ? | 19% | . | ? | ? | ? | . | 2%
- C(=N\Nc1nc(Nc2ccccc2)nc(Nc2ccccc2)n1)/c1ccncc1
    ? | 3% | . | -8% | -11% | -3% | . | 0%
- CC(=O)Nc1ccc(NC(=O)C(C)OC(=O)CCN=C2NS(=O)(=O)c3ccccc32)cc1 (stereo unspecified)
    19% | 8% | . | 2% | ? | 2% | . | 0%
- CC(=O)Nc1cc(-c2nn(CC(=O)N3CCCCC3)c(=O)c3ccccc23)ccc1N1CCOCC1
    12% | -2% | -8% | . | -12% | -6% | 4.4% | 2%
- CC1CCCCN1CCNC(=O)c1ccc2c(c1)N(Cc1ccccc1F)C(=O)c1ccccc1S2=O (stereo unspecified)
    . | -22% | . | 0% | . | 1% | . | 8%
- O=C(CN1CCCCC1)N1c2ccccc2Sc2ccc(C(F)(F)F)cc21
    ? | -4% | -2% | -29% | -28% | 2% | -1.6% | 6%
- COc1ccccc1N1CCN(S(=O)(=O)c2c(C)sc3ncn(CC(=O)Nc4cccc(Cl)c4)c(=O)c23)CC1
    ? | . | -9% | -12% | 2%[46.1 µM] | . | -4.0% | .
- COc1ccccc1/C=C/c1nc(C#N)c(N2CCN(c3ccccc3)CC2)o1
    12%[46.1 µM] | . | 13% | -20% | 4%[46.1 µM] | . | 4.2% | .
- CCC(C)NC(=O)c1ccc2c(c1)N(Cc1ccccc1)C(=O)CS2 (stereo unspecified)
    -1% | . | . | -10% | -1% | 16% | . | 1%
- O=C(CCNC(=O)Cn1ccc2ccccc2c1=O)NCCCN1CCN(c2ccccc2F)CC1
    -2%[46.1 µM] | -9% | -9% | -21% | ? | -1% | -3.4% | -1%
- CCOc1ccc(NC(=O)C2CCCN(C(=O)NCc3ccccc3)C2)cc1 (stereo unspecified)
    -2% | -8% | 15% | -21% | -10% | -2% | -3.6% | -23%
- O=C(COc1ccc2c3c(c(=O)oc2c1)CCC3)NCCN1CCOCC1
    2%[46.1 µM] | 4% | . | -6% | 10%[46.1 µM] | -20% | . | -3%
- Cc1ccc([C@H]2C(C#N)=C(N)Oc3cc(C)oc(=O)c32)o1
    5%[46.1 µM] | . | . | 25µM* | -3% | 3% | . | -14%
- Cc1ccc2cc(N)ccc2n1
    ? | -3% | . | 22% | 14% | 5% | . | -1%
- O=C(Nc1ccccc1C(=O)NCCCn1ccnc1)c1ccc(Cl)cc1Cl
    ? | 14% | 7% | -19% | 9% | 17% | 0.6% | 22%
- C/C(=N\NC(=O)NC1CCCCC1)c1ccco1
    ? | . | . | 26% | 10% | -6% | . | 0%
- NC(=O)COC(=O)c1cc([N+](=O)[O-])ccc1NCCO
    . | 2% | . | -17% | . | 6% | . | -1%
- Cc1ccc(CCNC(=O)c2nnn(-c3cccc(C)c3)c2N)cc1
    5% | -38% | 3% | -23% | ? | -17% | -2.7% | ?
- CCOC(=O)C1CCN(CCC(=O)Nc2cccc(C)c2)CC1
    2%[46.1 µM] | 1% | . | 5% | 20% | 4% | . | 0%
- COC(=O)c1cc(C#N)c(OC)nc1C
    ? | . | . | -3% | 5% | 8% | . | -2%
- COc1ccc(/C=C/C(=O)NC2CCCCCC2)cc1S(=O)(=O)N1CCOCC1
    ? | -1% | 22% | 50%[activator] | ? | -5% | -5.2% | 12%
- Cc1ccc(NC(=O)CN2C(=O)CC(c3ccc(F)cc3)=Nc3ccccc32)cc1F
    . | . | -16% | 10% | 6%[46.1 µM] | . | -0.7% | .
- COc1ccc(-c2cc(C)no2)cc1S(=O)(=O)NC(C)C
    . | . | -10% | 52%[activator] | -5%[46.1 µM] | . | 3.2% | .
- COc1ccc(Cn2c(=S)[nH]c3ccsc3c2=O)cc1
    ? | -3% | 3% | 6% | -2% | -2% | -8.7% | 12%
- CC(C)c1cc(-c2nc(-c3cccc(Cl)c3)no2)n[nH]1
    . | . | 16% | 4% | 5%[46.1 µM] | . | -10% | .
- O=C1CC(c2ccco2)CC(O)=C1C=NCCN1CCNCC1 (stereo unspecified)
    6% | 7% | 0% | -14% | -5% | 0% | -5.6% | 3%
- NC(=S)N/N=C/c1ccc(-n2nncc2-c2ccc(Cl)cc2)cc1
    ? | 6% | . | -28% | 11µM* | 2% | . | 10µM*
- COc1ccc(-n2nc(C(=O)N3CCCCC3)c(C)c(C#N)c2=O)cc1
    2%[46.1 µM] | . | . | -17% | 1%[46.1 µM] | -3% | . | -3%
- Nc1cc(OC(=O)c2cccs2)nn1S(=O)(=O)c1ccc(F)cc1
    -21%[46.1 µM] | 5% | -29% | -1% | -7% | 6% | ? | 2%
- Cc1c(Cl)cccc1NC(=O)Cn1c(=O)n(Cc2nc(-c3ccccc3)no2)c(=O)c2cc3c(cc21)OCO3
    . | . | ? | -21% | 23%[46.1 µM] | . | -3.0% | .
- Cc1nc2cc(-c3cccs3)nn2c(NCC(C)(C)CN(C)C)c1C
    24% | -2% | . | -11% | 1% | 2% | . | 0%
- CC(Cc1nnc(SCC(=O)O)n1N)c1ccccc1 (stereo unspecified)
    -16%[46.1 µM] | 4% | . | -14% | 19%[46.1 µM] | -3% | . | 6%
- COC(=O)c1cc(S(=O)(=O)Nc2ccsc2C(=O)OC)oc1C
    . | -8% | . | 14% | . | -3% | . | -4%
- COc1ccc(Cl)cc1N1C(=O)C2CCCN2C1c1ccc(F)cc1 (stereo unspecified)
    0% | -13% | -13% | -15% | . | -3% | 3.8% | 3%
- O=C(Nc1nc2c(F)cc(F)cc2s1)c1ccc2c(c1)OCCO2
    . | . | -10% | ? | 27%[46.1 µM] | . | 1.2% | 1%
- CCN=C1S/C(=C\c2cn(CC(=O)NCCOC)c3ccccc23)C(=O)N1CC
    -10%[46.1 µM] | 7% | . | -8% | ? | 0% | . | -1%
- O=C(CN1CCOCC1)Nc1cc(C(F)(F)F)ccc1Cl
    ? | . | . | -22% | 2% | -11% | . | -3%
- O=[N+]([O-])c1ccc(O)c(N=Cc2sc3ccccc3c2O)c1
    ? | -4% | 13µM* | ? | ? | -25% | -9.4% | ?

Single entries from the entries so far:
`CCN=C1S/C(=C\c2cn(CC(=O)NCCOC)c3ccccc23)C(=O)N1CC` in SARS PLP yeast → -1%
`Cc1c(Cl)cccc1NC(=O)Cn1c(=O)n(Cc2nc(-c3ccccc3)no2)c(=O)c2cc3c(cc21)OCO3` in StopGo reporter → -21%
`O=C(Nc1nc2c(F)cc(F)cc2s1)c1ccc2c(c1)OCCO2` in Cruzain inh noDet → -10%

Carrying on:
Every second line gives: MARV entry inh | NS1 function inh | Cruzain inh noDet | StopGo reporter | Lassa entry inh | RE007 growth inh | Cruzain Triton | SARS PLP yeast
- CNC(=S)NNC(=O)c1cn(C)nc1C
    ? | . | . | 4% | 8%[46.1 µM] | 6% | . | -1%
- CCCC(c1nnnn1Cc1cccs1)N1CCN(C2CCCC2)CC1 (stereo unspecified)
    4%[46.1 µM] | -4% | -1% | -11% | -7% | -2% | 2.6% | -1%
- CC(=O)N1CCc2cc(S(=O)(=O)NCC(=O)NCc3ccc(Cl)cc3)ccc21
    . | -4% | . | 8% | . | 4% | . | -5%
- CCC1CCCCN1S(=O)(=O)c1ccc2[nH]c(=O)ccc2c1 (stereo unspecified)
    . | 7% | . | -16% | . | 12% | . | 3%
- CC(=O)CC(=O)Nc1ccn(-c2ccccc2)n1
    8% | 8% | -1% | 18% | 9% | 0% | 1.9% | 4%
- COc1ccc(S(=O)(=O)NCC(c2ccco2)N2CCN(c3ccccc3F)CC2)cc1OC (stereo unspecified)
    . | . | 4% | -8% | -21%[46.1 µM] | . | -3.0% | .
- COc1ccc2oc(C(=O)N(C)CCOc3ccccc3)c(C)c2c1
    10% | -20% | . | -13% | ? | 16% | . | -8%
- Cc1cccc(NS(=O)(=O)c2cc(C(=O)OC(C)C(=O)NCc3ccc4c(c3)OCO4)ccc2C)c1 (stereo unspecified)
    -23% | ? | -29% | 1% | ? | -9% | -2.2% | -3%
- Cc1ccccc1C(=O)NC(C)c1ccc2c(c1)CCCC2 (stereo unspecified)
    -16% | -59% | -12% | -23% | -2% | -14% | -4.8% | -1%
- O=C1C(Cl)=C(Nc2ccccc2O)C(=O)N1c1ccccc1
    8% | -187% | -12% | 0% | 1% | ? | -7.0% | -15%
- O=C(CCN1C(=O)C2C3C=CC(C3)C2C1=O)N1CCN(c2ccccc2Cl)CC1 (stereo unspecified)
    0% | -4% | ? | -28% | 3% | 6% | 10% | 0%
- CCOC(=O)N1CCC(NC(=O)c2ccc3c(c2)N=C(C)c2c(C)ccc(C)c2S3)CC1
    . | -13% | . | -24% | . | 9% | . | -54%
